CtBP-E1A inh = inhibitors of CtBP/E1A interaction. AID 651724. AlphaScreen GST-E1A/His-CtBP binding, 1536-well; hits give low values; control for the full effect not named in the record. activity change, % (concentration not given with the values). 0.49% of 340,000 active; in the data active means activity change below about -65%; inconclusive means about -30% to -65%; inactive means above about -30%; also: % is scaled to controls: 0 for no effect and ±100 for the full control effect
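Homogeneous bead-based format: GST-tagged E1A captured on glutathione donor beads, His-tagged CtBP on nickel acceptor beads; compounds precede bead addition by 2 h at 37 °C.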
TRPV1 PAM = human TRPV1 potentiation; Q8NER1; TRPV1-expressing cells, Fluo-8 calcium influx, capsaicin EC20 potentiation; host cell line not named in the record; control for the full effect not named in the record; potentiation, % at 8.33 µM; 0.02% of 320,000 active; AID 540277; active means potentiation above 80%; inconclusive means 30% to 80%; inactive means below 30%; also: 0% is about no effect
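Cells expressing TRPV1 were dye-loaded with Fluo-8 and read kinetically: 10 s baseline, 3 min after compound (agonist portion), then 2 min after EC20 capsaicin (allosteric enhancer portion). Calcium-bound dye fluorescence at 480/520 nm.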
Six1-Eya2 inh = Six1/Eya2 interaction inhibition; Q15475+O00167; AlphaScreen GST-Six1/His-Eya2 binding, biochemical; hits give low values; control for the full effect not named in the record; activity change, % (test concentration not listed); 0.56% of 360,000 active; AID 651725; in the data active = activity change below about -65%; inconclusive = about -30% to -65%; inactive = above about -30%; also: % is scaled to controls: 0 for no effect and ±100 for the full control effect; compound concentration not given in the record
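AlphaScreen with GST-Six1 and His-Eya2 (5X mix: 250 nM and 500 nM), glutathione donor and nickel acceptor beads; buffer 50 mM Tris pH 8.0, 300 mM NaCl, 1 mM TCEP; 1 h at 37 C in the dark.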
TRPML1 blocker = human mucolipin-1 channel inhibition | TRPML1-inducible cells, Ca2+ dye fluorescence, FDSS; hits give low values; inhibition of EC80 agonist-evoked calcium signal | activity change, negative = inhibition, % (test concentration not listed) | 0.02% of 390,000 active; in the data active means activity change below about -50%; inconclusive means about -30% to -50%; inactive means above about -30%;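 also: stimulus is agonist 54-4 at its EC80 concentration; % is scaled to controls: 0 for no effect and ±100 for the full control effect; compound concentration not given in the record; the text of the record puts the active cut at -80%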
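Calcium fluorescence in TRPML1-DL cells induced overnight with Tet: a 110 s read after compound pin addition, then a 110 s antagonist read after challenge with 54-4 at 4 uM final (EC80).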
D2 PAM = human D2 receptor positive allosteric modulation | P14416 | DiscoveRx D2 beta-arrestin cells, luminescence, 90 min; 100% = 57 uM dopamine signal | potentiation, % (no concentration beside the values) | 0.23% of 360,000 active; active = potentiation of 50% or more; inconclusive = 30% to 50%; inactive = 30% or less;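 also: compound concentration not given in the record; tested on top of an EC20 dose of dopamine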
Target sequence (P14416 whole entry, looked up): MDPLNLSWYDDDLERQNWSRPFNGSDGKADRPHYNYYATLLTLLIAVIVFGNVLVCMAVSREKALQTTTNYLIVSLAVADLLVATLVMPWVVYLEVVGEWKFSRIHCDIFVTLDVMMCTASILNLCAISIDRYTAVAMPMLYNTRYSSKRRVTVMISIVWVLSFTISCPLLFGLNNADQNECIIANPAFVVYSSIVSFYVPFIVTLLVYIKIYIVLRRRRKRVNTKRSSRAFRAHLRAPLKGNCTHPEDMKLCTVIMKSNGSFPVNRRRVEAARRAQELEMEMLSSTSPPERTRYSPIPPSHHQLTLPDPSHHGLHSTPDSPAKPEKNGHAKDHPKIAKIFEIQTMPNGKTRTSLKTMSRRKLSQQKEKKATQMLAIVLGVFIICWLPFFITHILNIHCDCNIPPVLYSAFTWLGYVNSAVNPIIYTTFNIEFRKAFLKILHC
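PathHunter beta-arrestin assay in DiscoveRx D2 cells. Compounds were added with an EC20 of dopamine (50 nM final) for 90 min at 37 deg C. Luminescence was read 1 h after detection reagent, with 57 uM dopamine as the EC100 control.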
TRPML1 agonist = agonists of human TRPML1 channel; Q9GZU1; TRPML1-expressing cells, Ca2+ dye fluorescence, FDSS; host cell line not named in the record; reference of the full effect not given here; activation, % (no concentration beside the values); 0.12% of 410,000 active; in the data active = activation above about 50%; inconclusive = about 30% to 50%; inactive = below about 30%; also: 0% is about no effect; the text of the record puts the active cut at 80%
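Tet-induced TRPML1-DL cells, 1,500 per well, cultured overnight, were loaded with a no-wash Ca2+ dye for 45–90 min. Calcium fluorescence was recorded on the FDSS for 110 s after compound addition, before the EC80 agonist (4 uM 54-4) was added.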
* marks the source's active call; other numbers are inactive results; u = inconclusive; x = not tested or not shown; & = joins results of further samples.

SMILES	CtBP-E1A inh	TRPV1 PAM	Six1-Eya2 inh	TRPML1 blocker	D2 PAM	TRPML1 agonist
COc1ccc2[nH]cc(C(=O)CN3CCN(C(=O)c4ccco4)CC3)c2c1	-7	-5	7	-1	-14	-0.2
COc1cccc(-c2cnc(C(O)c3cc(C)cc(C)c3)[nH]2)c1 (centres undefined)	-16	x	-16	x	-6	-0.7
c1ccc2c(c1)COc1c3cc4c(cc3nn1-2)OCO4	11	x	-3	16	3	1.3
CCN(CC)C(=O)CSc1nnc(-c2cccnc2)n1CCc1ccccc1	0	-4	-2	8	-2	0.7
CC(=O)N/C(=C/c1ccc(OS(=O)(=O)c2ccc(C)cc2)cc1)C(=O)NCCCO	9	-14	3	-10	-5	3.9
O=[N+]([O-])c1ccc(/C=N/n2c(-c3cccnc3)n[nH]c2=S)cc1	8	-11	5	-14	4	-0.1
COCCn1c(SCC#N)nnc1-c1ccccc1	0	-6	2	48	-12	0.0
CCCCC#Cc1cncc(C(=O)NN)c1	-13	5	-1	6	-2	0.5
CC(=O)c1c(C)[nH]c(C(=O)OCC(=O)Nc2c(C)n(C)n(-c3ccccc3)c2=O)c1C	-2	20	-3	-9	0	0.0
O=c1c(Cl)c(NCc2ccccc2Cl)cnn1C12CC3CC(CC(C3)C1)C2	-3	-22	5	-11	-7	-0.2
CC(c1nc2ccccc2c(=O)[nH]1)N1CCOCC1 (centres undefined)	4	1	-2	14	-9	0.5
CN(Cc1ccco1)C(=O)C1CCC(=O)N(CCc2cccc(F)c2)C1 (centres undefined)	-1	-24	-10	-14	-14	0.0
C/C(=N\NC(=O)c1cc(-c2cccs2)nc2ccccc12)c1ccccn1	-86*	-4	-82*	-11	-13	2.2
CC1CCC(NC(=O)CCS(=O)(=O)c2ccc3c(c2)NC(=O)C(C)S3)CC1 (centres undefined)	-18	0	6	-15	-3	-0.4
CN1C[C@H]2CON(C)[C@H]2C[C@H]1c1cccc(N2CCOCC2)c1	7	x	10	-9	x	-0.5
Cc1ccc(CNc2nc(C)cs2)cc1	-10	5	5	-2	-1	0.9
O=C(COc1ccc(Br)cc1)N(Cc1ccccc1)c1ccccn1	19	-6	11	8	7	-1.6
COc1cccc(-c2sc3ccc(OC)cc3c2-c2ccc(OCCN(C)C)cc2)c1	-19	x	u	-8	-20	0.2
FC(F)Oc1ccccc1NC(=S)NCc1ccco1	-5	2	-1	1	2	-0.6
Cc1ccc(CC(=O)c2ccc(Cl)cc2)cc1	40	1	1	-4	13	0.1
O=C(Nc1cccs1)Nc1ccc(F)cc1F	6	-6	-8	-5&-4	3	-0.7&-0.6
Cc1ccc(-c2ccc(C)c(N)c2C)c(C)c1N	-17	6	-13	17	-15	1.6
Cc1cc(N2CCCC2)ccc1/C=C1/C(=O)N(C)C(=S)N1C	-23	-6	u	-2	-6	4.8
Cn1ccnc1SCC(=O)Nc1cccc([N+](=O)[O-])c1	-9	-3	0	8	-10	-0.8
Cc1ccc(C2=NN3C(C2)c2ccccc2OC32C(=O)Nc3ccccc32)cc1 (centres undefined)	-10	-34	-1	-9	-2	-0.5
Cc1ccc2cc(C#N)c(SCC(=O)N3CCCc4ccccc43)nc2c1C	-8	1	-6	-1	-4	-0.7
CCn1c(SCC(=O)c2ccc(C)cc2)nnc1-c1ccncc1	3	-18	0	38	-6	-0.1
O=C(COC(=O)c1ccc(F)cc1)Nc1ccccc1N1CCOCC1	-1	4	1	20	-4	-0.4
C(=N\Nc1nncn1/N=C/c1ccco1)/c1ccco1	-22	18	-21	18	-1	-0.5
Cc1ccc2[nH]c(=O)cc(C(=O)OCC(=O)c3ccccc3)c2c1	1	0	6	3	-1	-0.1
COCCn1c(SCC(=O)c2ccc3c(c2)OCCO3)nnc1-c1ccco1	-3	7	2	-7	-2	1.9
C/C(=N\NC(=O)c1ccc(NS(=O)(=O)c2cccs2)cc1)c1ccc2c(c1)OCO2	2	-1	18	7	-1	1.7
CCOc1ccc2nc(NC(=O)CCn3cccc3)sc2c1	2	-23	-9	-17	-6	-0.6
CCc1ccc(NC(=O)CCS(=O)(=O)c2ccc(Br)cc2)cc1	x	8	3	-11	-10	1.6
O=C(Cc1ccc(NC(=O)C2CCCN(C(=O)C3CC3)C2)cc1)Nc1cccc(C(=O)N2CCCCC2)c1 (centres undefined)	-1	x	7	14	-1	-0.3
CSc1nc(-c2ccccc2)cn1-c1ccc(NC(C)=O)cc1	-10	-9	-14	-5	0	-0.7
CC1CCN(C(=O)c2[nH]cnc2C(=O)N[C@@H](C)C(=O)OC(C)(C)C)CC1	7	u	-1	6	-7	0.2
COc1ccc(NC(=O)CN2C(=O)NC3(CCCCC3C)C2=O)cc1OC (centres undefined)	10	5	2	15	-6	-0.3
COc1cccc(-c2ocnc2C(=O)Nc2ccc3c(c2)CCC3)c1	8	-4	9	-9	-9	2.7
CCN(C[C@H]1N[C@@](Cc2ccccc2)(C(=O)OC)[C@H]2C(=O)N(Cc3ccccc3)C(=O)[C@@H]12)C(=O)c1ccc(F)cc1	-2	x	-3	-9	-9	u
CCOC(=O)N1CCc2c(sc3[nH]c(=S)[nH]c(=S)c23)C1	-3	-1	-3	13	-11	0.8
CCCCNC(=O)c1onc(CSc2ccc(F)cc2)c1C(=O)NCCCC	26	u	19	82	-4	-0.8
COC(=O)[C@@]1(Sc2ccc(C)cc2)CC(=O)N(C(=O)c2ccccc2)[C@@H]1c1ccccc1	1	x	-1	x	x	-0.7
COc1ccccc1N1CCN(CC(=O)Nc2nc(C)c(C(=O)N(C)C)s2)CC1	x	-4	5	x	-19	x
Cc1ccc(CC2S/C(=C(/C#N)C(=O)NCc3ccco3)N(c3ccccc3)C2=O)cc1 (centres undefined)	24	1	-3	17	-7	0.7
COc1ccccc1CC(=O)Nc1ccc2c(c1)C(=O)NC2=O	-4	5	-9	-7	-5	0.2
COC(=O)c1ccc2nc(-c3ccccc3)c(Cc3ccc(OC)cc3C)n2c1	2	x	0	x	x	-0.3
Cc1ccc(F)c(S(=O)(=O)NC(=O)C2(C)CCN2C(=O)c2ccccc2)c1 (centres undefined)	6	x	12	x	-3	-0.7
COc1ccc(F)cc1S(=O)(=O)NC1CCCCCC1	2	-9	9	-15	-10	-0.3
O=C(Nc1ccc2nc(-c3ccc(Br)o3)[nH]c2c1)c1cccs1	u	28	u	-7	0	-1.6
COC(=O)C1CCN(CC(=O)Nc2ccc3c(c2)OCCO3)CC1	-11	x	-9	13	13	1.9
O=C(Nc1nccs1)c1cnc2sccn2c1=O	-11	x	-9	9	-3	-0.2
CS(=O)(=O)N(CC(=O)N1CCCC1)c1ccc(Cl)cc1	-10	0	7	-17	-3	0.5
COc1ccc(N2CCN(CCNC(=O)Nc3ccc([N+](=O)[O-])cc3OC)CC2)cc1	-27	-5	-25	0	-21	0.4
COc1ccc(Cn2c(SC)nc3ccccc32)cc1[N+](=O)[O-]	-8	-18	-4	-4	-2	-0.7
Cc1onc(-c2ccccc2)c1C(=O)N1CCN(C(=O)c2ccco2)CC1	12	-1	-4	4	-4	-0.5
O=S(=O)(c1ccc2nc(Nc3ccccc3)ccc2c1)N1CCCCC1	-2	u	2	3	-11	0.3
O=C(Cc1cccs1)NCc1ccncc1	-15	8	5	12	1	0.9
CCOc1c(Br)cc(C2CC(=O)Nc3cc(OC)c(OC)cc32)cc1OC (centres undefined)	-14	-6	-17	8	-1	1.0
CCCn1c(=O)c2ccccc2n2c(SCCOc3ccccc3)nnc12	9	-25	-5	3	-17	0.5
COc1ccc(Cl)cc1NC(=O)N1CCC(C)CC1	6	-28	5	52	-4	1.1
COCCCNC(=S)Nc1ccc2nc3n(c(=O)c2c1)CCCCC3	0	-5	5	-19	-10	-0.5
Cc1ccc(OCC(=O)NCC(=O)Nc2ccc(F)c(F)c2F)c([N+](=O)[O-])n1	1	2	3	8	8	1.2

Arranged by the number under D2 PAM (ascending): four from the list above.
canonical_smiles | D2 PAM
Cc1onc(-c2ccccc2)c1C(=O)N1CCN(C(=O)c2ccco2)CC1 | -4
CS(=O)(=O)N(CC(=O)N1CCCC1)c1ccc(Cl)cc1 | -3
CCOc1c(Br)cc(C2CC(=O)Nc3cc(OC)c(OC)cc32)cc1OC (centres undefined) | -1
O=C(Cc1cccs1)NCc1ccncc1 | 1

Results in TRPML1 blocker, Six1-Eya2 inh and TRPV1 PAM (5 entries from above):
SMILES	TRPML1 blocker	Six1-Eya2 inh	TRPV1 PAM
CCCCNC(=O)c1onc(CSc2ccc(F)cc2)c1C(=O)NCCCC	82	19	u
Cc1ccc2cc(C#N)c(SCC(=O)N3CCCc4ccccc43)nc2c1C	-1	-6	1
COC(=O)C1CCN(CC(=O)Nc2ccc3c(c2)OCCO3)CC1	13	-9	x
CCN(CC)C(=O)CSc1nnc(-c2cccnc2)n1CCc1ccccc1	8	-2	-4
CCOC(=O)N1CCc2c(sc3[nH]c(=S)[nH]c(=S)c23)C1	13	-3	-1

Screening data as filed in PubChem.
